Lassa entry inh: Lassa virus entry inhibition | Lassa virus pseudotype entry inhibition, cell reporter; control for the full effect not named in the record | Potency, µM (doses to about 37.9 µM), for inactives: at the top dose activity change, negative = inhibition, actives largely listed as inhibitors | 300,000 tested, 1.2% active; active means well fitted inhibition curve with a large enough effect; inconclusive means small, poorly fitted or top-dose-only effect, or effect the other way; inactive means flat fitted curve, though single readings scatter; tested in HEK293 cells; note: % is set by controls: 0 for no effect and ±100 for the full control effect; nearly all actives have a fitted effect of over 50% in size; luciferase read-out
StopGo reporter: FMDV 2A StopGo reporter, luciferase signal. Potency, µM (titrated, usually from 57.9 µM), without a hit: at the highest dose signal change, negative = less light. 410,000 tested, 1.2% active. human cells with a luciferase reporter of 2A StopGo recoding; control for the full effect not named in the record; active = well fitted falling curve with a large enough effect; inconclusive = small, poorly fitted or top-dose-only effect; inactive = no such curve, though single readings can be large or run the other way; tested in HEK293T cells; note: % is set by controls: 0 for no effect and ±100 for the full control effect; nearly all actives have a fitted effect of over 45% in size; luciferase light after 4 h
Cruzain Triton: blocks cruzain activity in presence of Triton detergent | P25779 | purified cruzain, Z-FR-AMC fluorescence, 0.01% Triton | Potency, µM, without a hit: max response, negative = inhibition, most hits filed as inhibitors | 200,000 tested, 0.43% active | AID 1478;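 note: plate controls were neutral wells for no effect and buffer without enzyme for full effect; nearly all actives have a fitted effect of over 40% in size; top concentration of the series not given in the record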
Target sequence (P25779 123-467 limits assumed): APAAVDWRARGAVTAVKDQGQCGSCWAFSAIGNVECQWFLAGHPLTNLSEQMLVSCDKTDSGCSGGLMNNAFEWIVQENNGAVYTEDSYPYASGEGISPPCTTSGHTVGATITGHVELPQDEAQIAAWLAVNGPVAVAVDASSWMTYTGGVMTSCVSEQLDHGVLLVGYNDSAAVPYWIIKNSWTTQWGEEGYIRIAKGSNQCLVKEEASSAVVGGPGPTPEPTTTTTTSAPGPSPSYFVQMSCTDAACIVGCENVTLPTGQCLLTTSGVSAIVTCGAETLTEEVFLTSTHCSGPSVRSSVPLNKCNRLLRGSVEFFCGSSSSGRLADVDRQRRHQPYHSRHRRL
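Detergent-containing arm of a paired screen for aggregation-based inhibition: 0.01% Triton X-100 present. Cruzain at 1.5 nM cleaved 2 uM Z-FR-AMC at pH 5.5 with 5 mM DTT; AMC fluorescence gain over 60 s measured activity.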
RE007 growth inh: less growth of the S. pombe RE007 Vpr strain | S. pombe RE007 Vpr strain, BacTiter-Glo ATP luminescence, 24 h; control for the full effect not named in the record | Potency, µM (titrated, usually from 92.2 µM), for inactives: at the top dose activity change, negative = less growth | 360,000 tested, 0.21% active; active = well fitted falling curve with a large enough effect; inconclusive = small, poorly fitted or top-dose-only effect; inactive = no such curve, though single readings can be large or run the other way;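 note: % is set by controls: 0 for no effect and ±100 for the full control effect; nearly all actives have a fitted effect of over 50% in size; the assay follows cell death caused by Vpr and the record does not say whether a fall means rescue or toxicity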
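Fission yeast RE007 carrying one integrated HIV-1 vpr copy, seeded at OD 0.01 in PMG+AL medium with 23 nL pinned compound. Grown 24 h at 30 degrees; viability read by BacTiter-Glo luminescence after 5 min.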
NS1 inh: blocks influenza NS1 protein function; Potency, µM (series often up to 46.1 µM), for the others: at the top dose activity, positive = more growth; 270,000 tested, 0.4% active; S. cerevisiae slowed by influenza A NS1, growth recovery by OD600; active means well fitted rising curve with a large enough effect; inconclusive means small, poorly fitted or top-dose-only effect; inactive means no such curve, though single readings can be large or run the other way; note: nearly all actives have a fitted effect of over 50% in size
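A cell-based growth assay was used: compounds that relieve NS1-induced slow growth of budding yeast raise OD600. Assay medium was yeast nitrogen base with ammonium sulphate and -URA supplement, pH 6.0, with 2% galactose.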
MARV entry inh: blocks Marburg virus binding to or entry into cells | 300,000 tested, 1.8% active | Marburg virus pseudotyped entry inhibition, cell reporter; control for the full effect not named in the record; about a third of the inactives were read at about 46 µM | Potency, µM (series often up to 37.8 µM), inactives show top-dose activity change, negative = inhibition, actives largely listed as inhibitors; active = well fitted inhibition curve with a large enough effect; inconclusive = small, poorly fitted or top-dose-only effect, or effect the other way; inactive = flat fitted curve, though single readings scatter; tested in HEK293 cells; about a fifth of its hits are not listed in these tables; note: % is set by controls: 0 for no effect and ±100 for the full control effect; luciferase read-out
Cruzain noTriton: blocks cruzain activity in detergent-free assay; purified cruzain, Z-FR-AMC fluorescence, no detergent; Potency, µM, inactives show max response, negative = inhibition, usual class: inhibitors; 200,000 tested, 2.3% active;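 note: plate controls were enzyme without inhibitor for no effect and buffer without enzyme for full effect; nearly all actives have a fitted effect of over 40% in size; top concentration of the series not given in the record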
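Purified cruzain at 1.5 nM, pre-incubated 15 min with compound at room temperature in 100 mM sodium acetate pH 5.5, 5 mM DTT, 0.00005% Triton X-100. Reaction started with 2 uM Z-FR-AMC; AMC fluorescence increase over 60 s gives rate.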
SARS PLP yeast: inhibitors of SARS-CoV papain-like protease in yeast; S. cerevisiae expressing SARS-CoV PLpro, growth rescue; control for the full effect not named in the record; Potency, µM (series often up to 32.9 µM), for inactives: top-dose activity, positive = growth rescue; 330,000 tested, 0.19% active; AID 485353; active means well fitted rising curve with a large enough effect; inconclusive means small, poorly fitted or top-dose-only effect; inactive means no such curve, though single readings can be large or run the other way; note: 0% is about no effect; nearly all actives have a fitted effect of over 55% in size; growth read by luminescence after 48 h
An asterisk follows results filed as active; ? = inconclusive; nt = not tested or not shown; & = joins results of further samples; [ ] = remark or other dose. Unless noted, calls come from the whole dose curve; as a rule, active = well fitted curve in the direction sought with a large enough effect; inconclusive = small, poorly fitted or top-dose-only effect, or another doubt; inactive = no such curve, though single readings can be large; an effect the other way counts as inactive or inconclusive. Potency is the fitted concentration of half-maximal effect.

SMILES | Lassa entry inh | StopGo reporter | Cruzain Triton | RE007 growth inh | NS1 inh | MARV entry inh | Cruzain noTriton | SARS PLP yeast
CCOc1ccc(-c2nnc(SCC(=O)NCc3ccc(C)cc3)nc2-c2ccc(OCC)c(OC)c2)cc1OC | -12.7%[46.1 µM] | -11.7% | -0.1% | nt | nt | nt | -10.2% | nt
CCOc1cc2c3c(c1)C1(C(=O)N3C(C)(C)CC2C)C(C#N)=C(N)N2C(=C1C#N)Nc1ccccc12 (stereo not given) | 5.5% | -9.5% | -7.9% | -10.3% | ? | ? | 28.5% | -10.7%
Nc1ccc2c(c1)C(O)c1ccc(Cl)cc1-2 (stereo not given) | 0.7% | 17.2% | nt | -12.7% | nt | ? | nt | nt
COc1ccc(CNC(=O)COC(=O)CN2C(=O)COc3ccccc32)cc1 | 9.1% | -2.6% | nt | 6.0% | nt | -13.3% | nt | -1.2%
CCOC(=O)N1CCN(C(=O)c2ccc3nc(N4CCCCC4)sc3c2)CC1 | -2.2% | 37.9%[activator] | -2.6% | 18.3% | -6.1% | -1.5% | -1.7% | -9.4%
Oc1ccccc1-c1nc(/C=C/c2ccccc2)nn1-c1ccccc1 | -7.0%[46.1 µM] | -4.5%&-8.6% | -7.8%&0.8% | -2.7% | 15.7% | ? | ? | -25.8%
Cc1ccc(-c2nc3ccccc3c(=O)n2NC(=S)N(C)C)cc1 | -15.2% | -15.9% | 0.4% | 6.9% | 2.8% | 3.3% | 1.3% | -12.2%
Cc1ccc(Cl)cc1N1CCN(C(=O)CCC(=O)Nc2ccc3nc(N4CCC(C)CC4)cc(C)c3c2)CC1 | ? | 3.7% | -1.6% | nt | nt | 10.7%[46.1 µM] | 9.2% | nt
O=C(Nc1ccc(C(=O)N2CCN(c3ccc(Cl)cc3)CC2)cc1)C1=CSCCO1 | 18.9%[46.1 µM] | 10.9% | nt | -1.6% | 4.0% | ? | nt | -3.1%
COc1ccccc1C(=O)NCCC(=O)N1CCN(C(C)=O)CC1 | 14.3%[46.1 µM] | -12.9% | nt | 4.7% | nt | -27.2% | nt | -0.2%
O=C(O)c1nn(CC(=O)N(C2CCCCC2)C2CCCCC2)c(=O)c2ccccc12 | -5.2%[46.1 µM] | ? | nt | -4.5% | nt | 22.7%[46.1 µM] | nt | -0.4%
CC(NC(=S)NCCc1ccccc1)C(c1cccs1)N1CCN(Cc2ccccc2)CC1 (stereo not given) | ? | ? | 5.7% | -14.4% | -12.9% | ? | -5.1% | 1.4%
CCCCNC(=O)CSc1nc2ccsc2c(=O)n1C1CCN(C(=O)OCC)CC1 | -1.4% | ? | 3.7% | 22.6% | -2.5% | 6.5% | 1.7% | -1.7%
COc1ccc(OCC(=O)NC(Cc2c[nH]c3ccccc23)C(=O)O)cc1 (stereo not given) | -24.6%[46.1 µM] | -7.8% | -5.9% | nt | nt | -20.0%[46.1 µM] | -16.7% | nt
CCOC(=O)Cc1csc(NC(=O)/C=C/c2ccc(OC)cc2)n1 | ? | ? | nt | -22.1% | nt | ? | nt | -3.1%

Rewritten as labelled records: 2 of the compounds above
COc1ccc(CNC(=O)COC(=O)CN2C(=O)COc3ccccc32)cc1
  Lassa entry inh = 9.1%
  StopGo reporter = -2.6%
  Cruzain Triton = nt
  RE007 growth inh = 6.0%
  NS1 inh = nt
  MARV entry inh = -13.3%
  Cruzain noTriton = nt
  SARS PLP yeast = -1.2%
CCOC(=O)N1CCN(C(=O)c2ccc3nc(N4CCCCC4)sc3c2)CC1
  Lassa entry inh = -2.2%
  StopGo reporter = 37.9%[activator]
  Cruzain Triton = -2.6%
  RE007 growth inh = 18.3%
  NS1 inh = -6.1%
  MARV entry inh = -1.5%
  Cruzain noTriton = -1.7%
  SARS PLP yeast = -9.4%

Other results.
SMILES | Lassa entry inh | StopGo reporter | Cruzain Triton | RE007 growth inh | NS1 inh | MARV entry inh | Cruzain noTriton | SARS PLP yeast
O=C(/C(=C/O)N=Nc1ccccc1)c1ccncc1 | ? | ? | -6.8% | ? | -38.4% | 7.8% | -2.7% | ?
O=C(c1ccc([N+](=O)[O-])cc1)N1CCSC1c1ccccc1 (stereo not given) | -15.3% | -12.2% | 0.3% | -7.0% | 3.9% | 13.7% | 0.5% | ?
O=C(CN(Cc1cccs1)C(=O)CNS(=O)(=O)c1ccc(F)cc1)NCc1ccco1 | 12.0% | -10.1% | 1.6% | -12.2% | -5.4% | -0.1% | 9.3% | ?
CCC(=O)Nc1ccc2nc(SCCOc3ccccc3)sc2c1 | -15.2%[46.1 µM] | -3.5% | -6.2% | nt | nt | ? | 3.4% | nt
CCOc1ccc(OCC(=O)Nc2ccc(S(=O)(=O)Nc3cc(C)on3)cc2)cc1 | ? | 4.1% | -5.7% | nt | nt | -14.1%[46.1 µM] | -12.8% | nt
C/C=C/C=C/C(=O)N1CC[C@]23c4ccccc4N[C@H]4N(C)c5cccc6c5[C@]42CCN([C@H]6C2OC2(C)C)[C@H]13 (stereo not given in full) | nt | 6.4% | nt | 9.9% | -21.7% | nt | nt | -0.6%
CN(CCOc1ccccc1)C(=O)CCc1c[nH]c2ccccc12 | -12.7%[46.1 µM] | -2.9% | nt | -25.4% | -6.8% | -1.1%[46.1 µM] | nt | -3.2%
O=C(CC(O)(C(F)(F)F)C(F)(F)F)Nc1ccc(Cl)c(Cl)c1 | 4.61µM* | 8.91µM* | -5.0% | ? | -204.4% | 3.26µM* | -1.1% | -35.8%
CCOc1ccc(-n2nc3ccc(NC(=O)COc4ccccc4)cc3n2)cc1 | 12.8%[46.1 µM] | 15.2% | 1.9% | nt | nt | nt | -0.1% | nt
CC(=O)c1ccc(NC(=O)COc2ccccc2-c2nc(-c3cccc(C)c3)no2)cc1 | -0.7%[46.1 µM] | 25.2% | -5.1% | nt | nt | 5.0%[46.1 µM] | 14.9% | nt
O=C(NC1CCS(=O)(=O)C1)c1cccc(S(=O)(=O)N2CCCCCC2)c1 (stereo not given) | 3.2%[46.1 µM] | -0.2% | nt | 10.2% | -0.2% | 9.5%[46.1 µM] | nt | 0.1%
O=C1Cc2cc(S(=O)(=O)Nc3cccc(C(F)(F)F)c3)cc3c2N1CCC3 | 12.8%[46.1 µM] | 37.7%[activator] | -6.2% | nt | nt | nt | -15.3% | nt
CCOC(=O)c1c(NC(=O)CSc2ncn[nH]2)sc(C(=O)N(C)C)c1C | -1.6%[46.1 µM] | 5.8% | nt | 1.5% | nt | ? | nt | 4.3%
CCOC(=O)C1CCCN(S(=O)(=O)c2cc3c(cc2Cl)NC(=O)CO3)C1 (stereo not given) | nt | ? | nt | -3.1% | -2.8% | nt | nt | 3.1%
O=C(NCCS(=O)(=O)N1CCN(c2ccccc2)CC1)c1cccc(F)c1 | -9.0% | -17.5% | nt | -3.8% | nt | -0.2%[46.1 µM] | nt | 1.4%
O=C(OCC(=O)N1CCN(C(=O)c2ccco2)CC1)c1ccccc1NCCO | ? | 15.4% | nt | -8.7% | nt | 13.4% | nt | 1.0%
CC(C)c1ccc(NC(=O)C2CCCCC2C(=O)O)cc1 (stereo not given) | -1.1% | 21.9% | 1.5% | 5.5% | 6.7% | ? | -5.8% | 1.9%
CCOc1ccc2nc(NC(=O)c3cccn(Cc4ccccc4Cl)c3=O)sc2c1 | 1.4%[46.1 µM] | 7.6% | 1.5% | nt | nt | nt | -0.8% | nt
C=CCNc1nc(C(=O)OCC(=O)c2ccc(F)cc2)cs1 | 11.2% | 13.6% | nt | 11.7% | nt | -1.6%[46.1 µM] | nt | -3.6%
CCN(CC)CCN1C(=O)c2ccccc2NC1c1cc(OC)c(OC)c(OC)c1 (stereo not given) | 8.3% | nt | -8.9% | -5.8% | -10.3% | ? | -5.1% | 2.0%
Cc1c(C(=O)N2CCC(Cc3ccccc3)CC2)sc2ncnc(N3CCC(C)CC3)c12 | 4.6% | -13.4% | nt | 4.5% | nt | 10.0% | nt | -2.7%
Cc1ccc(S(=O)(=O)N2CCOCC2)cc1NC(=O)COC(=O)c1cc(=O)c2ccccc2o1 | -16.6% | -4.8% | -3.7% | 4.6% | 9.8% | 2.8% | 10.9% | 22.1%
CCN(CC)CCN1C(=O)C(=O)/C(=C(/O)c2ccccc2)C1c1ccccc1F (stereo not given) | 14.7% | -15.0% | -13.5% | 11.4% | -16.7% | 19.2% | 1.1% | -3.9%
CCc1nc2c(cnn2-c2ccc(C)cc2)c(=O)n1Cc1ccccc1 | 0.8%[46.1 µM] | -4.3% | -8.2% | nt | nt | -2.0%[46.1 µM] | -27.6% | nt
CCn1ccnc1CNC(=O)c1ccc2oc(CCCc3ccccc3)nc2c1 | nt | 0.8% | nt | -5.0% | -10.8% | nt | nt | -8.1%
Cc1cc(C)c2nc(N3CCCC(C(=O)NCc4cccc(Cl)c4)C3)sc2c1 (stereo not given) | nt | 2.4% | -0.4% | nt | nt | -27.1%[46.1 µM] | -6.7% | nt
CCc1ccc(NC(=S)NCc2cccnc2)cc1 | 0.5%[46.1 µM] | 47.3%[activator] | nt | 10.5% | -4.1% | -3.5%[46.1 µM] | nt | 0.4%
CC(C)(CO)NCc1ccccc1OCC(=O)Nc1ccccc1 | 9.5% | nt | 5.3% | 9.2% | -5.5% | -6.5% | -5.2% | -0.6%
Cc1noc(NS(=O)(=O)c2ccc(NC(=O)c3ccc(Br)cc3)cc2)c1C | 6.9%[46.1 µM] | 15.0% | -5.5% | nt | nt | nt | -3.2% | nt
CCc1c(C)sc2c1CCN(C(=O)Nc1cc(OC)c(OC)c(OC)c1)C2c1ccccc1 (stereo not given) | -4.0%[46.1 µM] | -11.5% | -2.3% | nt | nt | nt | ? | nt
CN(C)CCNc1ncnc2ccccc12 | 0.9% | 10.4% | 1.0% | 3.8% | -1.7% | 10.4% | 4.5% | -1.5%
CCCn1c(=N)c(S(=O)(=O)c2ccccc2)cc2c(=O)n3cccc(C)c3nc21 | 8.9%[46.1 µM] | 12.8% | nt | -2.4% | -5.7% | -0.9%[46.1 µM] | nt | 1.3%
COc1ccc(C)cc1NC(=O)NCc1ccc2c(c1)CCN2C(=O)c1ccccc1 | ? | ? | -3.1% | nt | nt | nt | 20µM* | nt

Bioassay records deposited in PubChem BioAssay by National Center for Advancing Translational Sciences (NCATS).
